High-throughput results as filed in PubChem.
Rango-impB inh: qHTS Assay for Inhibitors of Rango (Ran-regulated importin-beta cargo) - Importin beta complex formation; Rango CFP/YFP FRET sensor + importin beta, 45 min; Potency, µM (highest dose often 92.2 µM), for inactives: at the top dose inhibition of complex formation; 340,000 compounds, 0.031% hits; AID 540263, 2011; active = rising FRET ratio curve, often small or poorly fitted; inconclusive = mostly compound fluorescence or quenching in the first reads; inactive = flat curves in all reads;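 note: potency is the fitted concentration of half-maximal effect; 0% = DMSO wells and 100% = buffer wells lacking importin beta; nearly all actives have a fitted effect of over 15% in size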
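Inhibition scored from the CFP 486 nm/YFP 530 nm FRET ratio 45 min after adding 0.125 microM importin beta to 50 nM Rango biosensor preincubated 5 min with compound (room temperature, PBS with DTT, Tween-20, BSA). No-importin wells as positive control.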
GLA inh pH 4.5: qHTS Assay for Inhibitors of Human alpha-Galactosidase at pH 4.5. AID 1467, 2008. activity change, negative = inhibition, % at 105 µM. 230,000 tested, under 10 active. purified enzyme, 4-MU-alpha-Gal fluorescence, pH 4.5; inconclusive = small, poorly fitted or top-dose-only inhibition, or a rising curve; inactive = flat fitted curve, though single readings scatter; no compound was filed as active;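 note: 0% = full activity with enzyme and -100% = basal without enzyme; dose as in the result columns while the protocol names 77 µM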
Target sequence (P06280 whole entry, looked up): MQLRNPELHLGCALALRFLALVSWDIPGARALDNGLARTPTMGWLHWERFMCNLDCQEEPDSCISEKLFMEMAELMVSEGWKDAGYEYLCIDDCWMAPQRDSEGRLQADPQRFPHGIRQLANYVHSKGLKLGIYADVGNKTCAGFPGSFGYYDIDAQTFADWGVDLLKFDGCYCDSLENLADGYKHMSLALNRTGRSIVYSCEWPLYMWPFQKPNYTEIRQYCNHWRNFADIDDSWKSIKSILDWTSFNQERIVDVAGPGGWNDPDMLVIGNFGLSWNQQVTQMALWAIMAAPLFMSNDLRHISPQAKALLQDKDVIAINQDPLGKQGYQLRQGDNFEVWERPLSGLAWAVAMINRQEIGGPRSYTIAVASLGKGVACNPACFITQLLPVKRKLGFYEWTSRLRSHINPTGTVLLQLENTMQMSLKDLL
Rango dissoc inh: qHTS Assay for Inhibitors of RanGTP induced Rango (Ran-regulated importin-beta cargo) - Importin beta complex dissociation. Potency, µM (highest dose often 46.1 µM), without a hit: at the highest dose activity change, negative = inhibition. AID 540253, 2011. 340,000 compounds, 0.071% hits. Biochemical FRET Rango-importin beta, RanGTP-induced dissociation; active means falling FRET ratio curve, often poorly fitted, with flat reads before Ran was added; inconclusive means other falling curves, or compound fluorescence or quenching; inactive means flat or rising ratio curve;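 note: potency is the fitted concentration of half-maximal effect; % of control where 0% means no effect; nearly all actives have a fitted effect of over 45% in size; -100% = wells without RanGTP and RCC1; the record marks most hits as doubtful in a second field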
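FRET read at 45 min, room temperature: inhibitors block the CFP/YFP signal rise when RanGTP (0.6 uM Ran, 2 mM GTP, 0.2 uM RCC1) frees Rango (0.1 uM) from importin beta (0.25 uM). Pre-read after 5 min compound exposure flags interference.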
miR-21 reporter: qHTS Assay for Modulators of miRNAs and/orActivators of miR-21; Potency, µM (highest dose often 38.3 µM), inactives show top-dose reporter change, positive = more light; 340,000 tested, under 10 active; HeLa miR-21 FLuc reporter, luciferase, 48 h; active = well fitted rising curve with a large enough effect; inconclusive = small, poorly fitted or top-dose-only effect; inactive = no such curve, though single readings can be large or run the other way;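 note: % of control where 0% means no effect; miR-21 action dims this reporter so a rising signal means less miR-21 action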
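Compounds were titrated across several concentrations (up to approximately 40 uM) and incubated 48 hours with HeLa miR-21-FLuc reporter cells (miR-21 target sequence downstream of FLuc, endogenous miR-21). Readout was firefly luciferase luminescence after lytic detection reagent.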
* = called active by the depositor; ? = inconclusive; / = not tested or not shown; & = joins results of further samples.

(1) O=C1COc2ccc(C(=O)COC(=O)CCc3ccc(S(=O)(=O)N4CCOCC4)cc3)cc2N1
(2) CCCOc1ccc(-c2nc(OCC)c3ccccc3n2)cc1
(3) CC(=O)OCC1OC(OCc2cn(C[C@H]3CC[C@H](Cn4cc(COC5OC(COC(C)=O)C(OC(C)=O)C(OC(C)=O)C5OC(C)=O)nn4)O3)nn2)C(OC(C)=O)C(OC(C)=O)C1OC(C)=O (stereo partly drawn)
(4) COCCn1c(-c2ccccc2)cnc1N
(5) CCCCN1C(=O)C(=O)N(CC(=O)c2cc(C)n(-c3cc(C)on3)c2C)C1=O
(6) CN(C)c1ccc(/C=N/OC(=O)Nc2ccccc2)cc1
(7) Cc1cccc(C)c1NC(=O)CN(C)C(=O)c1ccc(N2C(=O)CCC2=O)cc1
(8) C/C(=N\NC(=O)c1cccc(Cl)c1)C1C(=O)c2ccccc2C1=O

Compound	1	2	3	4	5	6	7	8
Rango-impB inh	3.5%	1.1%	0.1%	-1.8%	-1.6%	-1.6%	-2.6%	-0.3%
GLA inh pH 4.5	2	8	/	4	/	/	/	8
Rango dissoc inh	-10%	-18%	-12%	-17%	-6%	-5%	-2%	-16%
miR-21 reporter	-4%	-27%	2%	-3%	/	-34%	/	-13%

(9) O=C(Nc1ncccn1)C1CCCN1S(=O)(=O)c1ccc(Cl)c(Cl)c1 (stereo not drawn)
(10) CCOC(=O)c1cc(NC(=O)OC)c(C)nc1C
(11) COc1ccccc1C(=O)N/C(=C/c1ccco1)C(=O)Nc1cccc(C(=O)O)c1
(12) C/C(=N/NC(=O)c1ccccc1)C(=O)O
(13) Cc1ccc(N(C(=O)CS(=O)CC(=O)Nc2ccc(F)cc2)C(C)C(=O)NC(C)(C)C)cc1 (stereo not drawn)
(14) O=C(Nc1ccc2nc(-c3ccco3)[nH]c2c1)c1cccs1
(15) CC(C)(C)OC(=O)N[C@@H](Cc1ccccc1)C(=O)N1CCC(C(=O)O)CC1
(16) COc1cc2sc(C)nc2c2sccc12

Compound	9	10	11	12	13	14	15	16
Rango-impB inh	-2.4%	5.4%	?	?	1.9%	-0.4%	-1.6%	-0.4%
GLA inh pH 4.5	-4	-3	/	6	/	-1	9	-2
Rango dissoc inh	2%	1%	?	1%	-21%	4%	3%	-2%
miR-21 reporter	-5%	-2%	-1%	-64%	1%	-39%	-2%	-7%

(17) c1ccc(Oc2nc(NCc3ccco3)nc(NCc3ccco3)n2)cc1
(18) O=C(O)/C=C/c1ccc(Cn2ccnc2)cc1
(19) O=C(NNC(=O)c1ccccc1F)c1ccc(-n2cncn2)c([N+](=O)[O-])c1
(20) Cc1cccc(CCN=C(N)NS(=O)(=O)c2ccccc2)c1
(21) O=C(CN1CCN(Cc2ccccc2)CC1)NNC(=O)c1ccc(Cl)cc1
(22) CS(=O)(=O)n1nc(-c2ccc(Cl)cc2)nc1N
(23) COc1ccc(N2C(=O)NC3CC2(C)Oc2ccc(Br)cc23)cc1OC (stereo not drawn)
(24) O=C(c1cccc(Cl)c1)N1CCCc2ccccc21

Compound	17	18	19	20	21	22	23	24
Rango-impB inh	0.6%	1.3%&-1.0%	-3.4%	-0.4%	0.5%	-0.7%	1.7%	-1.1%
GLA inh pH 4.5	-4	/	/	/	/	-1	-2	/
Rango dissoc inh	-24%	-16%&-1%	0%	16%	-4%	6%	0%	9%
miR-21 reporter	-8%	/	/	0%	/	-21%	13%	-5%

(25) CCC(C)N(CC(=O)Nc1cccc(C)c1C)C(=O)CCl (stereo not drawn)
(26) CCn1c(CNC(=O)c2ccco2)nnc1SCC(=O)Nc1cc(C(F)(F)F)ccc1Cl
(27) Cc1ccccc1NC(=O)c1cccc(NC(=O)c2c(C(=O)O)cccc2[N+](=O)[O-])c1
(28) Cc1noc(C)c1NC(=O)Nc1ccc2c(c1)CC(=O)N([C@@H](C)CO)C[C@@H](C)[C@@H](CN(C)C(=O)Nc1cccc3ccccc13)O2
(29) CN1C(=O)C(O)(CC(=O)/C=C/c2ccco2)c2ccccc21 (stereo not drawn)
(30) CCN(CC(=O)Nc1ccccc1C(F)(F)F)C(=O)c1ccc2c(c1)NC(=O)CS2
(31) Cc1ccccc1S(=O)(=O)Cc1ccc(C(=O)O)o1
(32) CCOc1ccc2c(c1)C(N(CCN1CCOCC1)C(=O)Nc1ccccc1)CC(C)(C)O2 (stereo not drawn)

Compound	25	26	27	28	29	30	31	32
Rango-impB inh	2.5%	3.0%	-3.0%	-5.5%	1.3%	3.0%	-3.4%	-6.0%
GLA inh pH 4.5	-26	3	/	/	-6	/	4	-6
Rango dissoc inh	-5%	-8%	0%	8%	3%	0%	0%	3%
miR-21 reporter	?	2%	/	/	-1%	/	-5%	-2%

(33) C=CCN1C(=O)C(Cc2ccc(OC)cc2)S/C1=N\N=C\c1cccs1 (stereo not drawn)
(34) COC(=O)[C@]1(Cc2ccccc2)N[C@H](CN(C)S(=O)(=O)c2ccc(F)cc2)[C@@H]2C(=O)N(Cc3ccccc3)C(=O)[C@@H]21
(35) O=C(CSc1nnnn1-c1ccccc1)Nc1ncc2c(n1)CC(c1ccco1)CC2=O (stereo not drawn)
(36) Cc1nc(NCc2ccc3c(c2)OCO3)c2nnn(Cc3ccccc3)c2n1
(37) COc1ccc(-n2c(COc3cccc4ccccc34)nnc2SCC(=O)NCc2ccco2)cc1
(38) O=C(N/N=C/c1ccccc1OCc1ccccc1)c1cccnc1
(39) Cc1nn(-c2ccccc2)c(Cl)c1/C=C(\C#N)C(=O)NC(C)C
(40) C1CCC(Nc2nnnn2C2CCCCC2)CC1

Compound	33	34	35	36	37	38	39	40
Rango-impB inh	4.6%	1.4%	-0.8%	3.5%	2.6%	0.7%	1.9%	-0.6%
GLA inh pH 4.5	-14	/	-4	-4	1	-1	10	-7
Rango dissoc inh	19%	1%	37%	15%	1%	0%	28%	-2%
miR-21 reporter	0%	/	-8%	-3%	1%	-11%	24%	-1%

Gathered by group, those above containing a nitro group on carbon (2)
(19) O=C(NNC(=O)c1ccccc1F)c1ccc(-n2cncn2)c([N+](=O)[O-])c1
(27) Cc1ccccc1NC(=O)c1cccc(NC(=O)c2c(C(=O)O)cccc2[N+](=O)[O-])c1

Compound	19	27
Rango-impB inh	-3.4%	-3.0%
GLA inh pH 4.5	/	/
Rango dissoc inh	0%	0%
miR-21 reporter	/	/

Next section
(41) CCCC(C)C(=O)Nc1ccc(S(=O)(=O)N2CCCC2)cc1 (stereo not drawn)
(42) CC(C)CNC(=O)c1ccccc1NC(=O)c1ccccc1N(C)S(=O)(=O)c1ccccc1
(43) COc1ccc(N(CC(=O)NCc2ccco2)S(C)(=O)=O)cc1Cl
(44) Cc1ccc(NC(=O)C2=NNC(=O)CC2)cc1S(=O)(=O)Nc1ccc(SC(F)F)cc1
(45) COC(=O)C1CN(C(=O)c2cccc(OC(F)F)c2)c2ccccc2O1 (stereo not drawn)
(46) CCCCCCS(=O)[C@H]1CS(=O)(=O)C[C@@H]1S(=O)CCCCCC (stereo partly drawn)
(47) CC(C)CCNc1nc2c(cc1C#N)COC(C)(C)C2
(48) COc1ccc(CCNC(=O)CCn2c(=O)c3cccn3c3ccc(F)cc32)c(OC)c1OC

Compound	41	42	43	44	45	46	47	48
Rango-impB inh	-0.4%	5.2%	0.2%	-2.6%	-0.2%	-0.2%	-12%	6.0%
GLA inh pH 4.5	/	-1	6	/	/	13	5	/
Rango dissoc inh	-16%	1%	-15%	-21%	-17%	0%	14%	0%
miR-21 reporter	0%	2%	-9%	/	0%	-4%	-9%	-14%&-4%

(49) NS(=O)(=O)c1ccc(F)c(C(=O)O)c1
(50) COc1ccc(N2CCN(C(=O)c3[nH]c4ccc(OC)cc4c3C)CC2)cc1
(51) O=C(CC1C(=O)N(c2ccc(F)cc2)C(=O)N1Cc1ccccn1)Nc1ccccc1 (stereo not drawn)
(52) Cn1c(CC(=O)NNC(=O)c2cccnc2)nc2ccccc21
(53) Cc1cc(C)c2c(CN3CCC(C)CC3)cc(=O)oc2c1C
(54) CC1(C)NC(=O)N(CC(=O)NNC(=O)c2ccccc2F)C1=O
(55) CN(C(=O)C1CCCO1)C1CCS(=O)(=O)C1 (stereo not drawn)
(56) CCOc1ccc(Nc2nc(NCC3CCCO3)c3ccccc3n2)cc1 (stereo not drawn)

Compound	49	50	51	52	53	54	55	56
Rango-impB inh	-4.6%	0.6%	5.4%	0.3%	0.2%	-4.3%	?	0.7%
GLA inh pH 4.5	-12	/	-3	/	/	/	/	-9
Rango dissoc inh	11%	-11%	?	9%	-13%	-6%	-5%	22%
miR-21 reporter	-5%	-2%	8%	/	3%	/	/	30%

Excerpt, compounds 50–56
(50) COc1ccc(N2CCN(C(=O)c3[nH]c4ccc(OC)cc4c3C)CC2)cc1
(51) O=C(CC1C(=O)N(c2ccc(F)cc2)C(=O)N1Cc1ccccn1)Nc1ccccc1 (stereo not drawn)
(52) Cn1c(CC(=O)NNC(=O)c2cccnc2)nc2ccccc21
(53) Cc1cc(C)c2c(CN3CCC(C)CC3)cc(=O)oc2c1C
(54) CC1(C)NC(=O)N(CC(=O)NNC(=O)c2ccccc2F)C1=O
(55) CN(C(=O)C1CCCO1)C1CCS(=O)(=O)C1 (stereo not drawn)
(56) CCOc1ccc(Nc2nc(NCC3CCCO3)c3ccccc3n2)cc1 (stereo not drawn)

Compound	50	51	52	53	54	55	56
Rango-impB inh	0.6%	5.4%	0.3%	0.2%	-4.3%	?	0.7%
GLA inh pH 4.5	/	-3	/	/	/	/	-9
Rango dissoc inh	-11%	?	9%	-13%	-6%	-5%	22%
miR-21 reporter	-2%	8%	/	3%	/	/	30%

(listing goes on)
(57) CC(C)(C)NC(=O)Cn1nnnc1-c1nonc1N
(58) COC(=O)c1sc(N2CCCCC2)c(C#N)c1N
(59) O=C(O)CSc1c2c(nc3cc(C(=O)NCCN4CCOCC4)ccc13)CCC2
(60) O=C1C2CCCN2C(=O)N1CCCCN1CCN(c2cccc(Cl)c2)CC1 (stereo not drawn)
(61) CC(Sc1ccc(Cl)cc1)C(=O)Nc1ccc(S(=O)(=O)N2CCOCC2)cc1 (stereo not drawn)
(62) CCOC(=O)N1CCN(C(=O)CN2C(=O)COc3ccc(S(=O)(=O)N4CCOCC4)cc32)CC1
(63) Cc1scc(C(=O)N2CCN(S(C)(=O)=O)CC2)c1-c1ccccc1
(64) CCCCN(CC)CCCNC(=O)c1cn(CC(C)C)c(=O)c2c1c1ccccc1n2C

Compound	57	58	59	60	61	62	63	64
Rango-impB inh	-4.2%	1.1%	3.3%	0.7%	-1.1%	-1.0%	-0.6%	0.1%
GLA inh pH 4.5	-1	-11	3	2	2	/	1	/
Rango dissoc inh	14%	0%	1%	0%	0%	-13%	-13%	-9%
miR-21 reporter	-15%	-29%	-1%	-12%	15%	1%	-5%	3%&-6%

(65) CCOC(=O)C1(CC2CCCCO2)CCN(C(=O)Nc2ccccc2)CC1 (stereo not drawn)
(66) COc1cc(/C=N/NS(=O)(=O)c2ccc(C)cc2)ccc1OCc1ccc(C(=O)O)cc1
(67) CC(C)(C)/C(COc1ccccc1[N+](=O)[O-])=N/O
(68) O=C(CCNC(=O)c1ccc(Br)o1)NC1CCCC1

Compound	65	66	67	68
Rango-impB inh	-1.8%	4.8%	-1.1%	3.1%
GLA inh pH 4.5	-2	-5	4	-7
Rango dissoc inh	1%	9%	-4%	-3%
miR-21 reporter	-18%	-59%	-17%	-3%

An excerpt; the hit share may differ from the screen's.
